Source: PubChem BioAssay
rRNA inh HTS = selective bacterial rRNA inhibition in E. coli; E. coli WT GFP vs humanized-ribosome RFP mutants, fluorescence, 24 h; active compounds read low; DMSO median 0, no signal -100; 350,000 tested, 1.6% active; AID 720706; GFP signal change (wild-type ribosome), % (test concentration not listed);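 active = significant combined selectivity score with lowered wild-type GFP, culture density cut under 30%, mutant RFP and density less affected; inactive = any of these conditions unmet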; also: one replicate is shown; some compounds called inactive have numbers as strong as hits
rRNA inh HTS OD600 = further read-out of rRNA inh HTS, marked with its call; OD600 change, %; measured here: OD600 growth;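 optical density of the mix in the first replicate; 0 = DMSO median and -100 = no signal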
rRNA inh HTS RFP = recorded beside rRNA inh HTS, whose call it bears; RFP signal change, %; measured here: RFP humanized mutant strains;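 first replicate; 0 = DMSO median and -100 = no signal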
* = called active by the depositor; & = joins results of further samples. Only part of the results is shown (hit frequency here may not be typical).

SMILES | rRNA inh HTS | rRNA inh HTS OD600 | rRNA inh HTS RFP
C[C@@H]1CN([C@@H](C)CO)C(=O)c2cc(Br)cnc2O[C@H]1CN(C)C(=O)c1ccncc1 | 4&0 | 16&12 | 20&-3.7
C[C@H](CO)N1C[C@H](C)[C@@H](CN(C)S(=O)(=O)c2ccc(F)cc2)Oc2c(NC(=O)c3nc4ccccc4s3)cccc2C1=O | -5 | -1 | -1.3
C[C@H]1CN([C@@H](C)CO)C(=O)c2cc(-c3ccc(F)cc3)cnc2O[C@H]1CN(C)C(=O)Cc1ccccc1 | -5 | 1 | -1.5
COc1ccc(S(=O)(=O)Nc2ccc3c(c2)C(=O)N([C@H](C)CO)C[C@H](C)[C@H](CN(C)C(=O)c2ccncc2)OCCCC[C@H](C)O3)cc1 | 0 | -2 | -0.5
COc1ccc(NC(=O)Nc2ccc3c(c2)CC(=O)N([C@@H](C)CO)C[C@@H](C)[C@H](CN(C)CC2CC2)O3)cc1 | 1 | 2 | -0.1
COc1ccc(CNC(=O)C2(C)Cc3c(-c4ccc5c(c4)OCO5)ccnc3O2)cc1OC (stereo unspecified) | -2 | -15 | -0.8
C[C@H]1CN([C@@H](C)CO)C(=O)c2cccc(NC(=O)C3CCCCC3)c2O[C@@H]1CN(C)Cc1ccccc1 | 1 | 4 | -1.3
Cc1ccc(-c2ccc(CN3C(C)C(=O)N(Cc4cn(Cc5ccco5)nn4)CCS3(=O)=O)cc2)cc1 (stereo unspecified) | -6 | -2 | 4.7
CO[C@H]1CN(C)C(=O)c2cc(NS(=O)(=O)c3ccccc3)ccc2OC[C@H](C)N(Cc2nccs2)C[C@@H]1C | 0 | -15 | 4.4
COCC(=O)Nc1ccc2c(c1)[C@@H]1C[C@H](CC(=O)OC)O[C@H](CO)[C@@H]1O2 | 27&1 | 17&2 | 2.1&-0.7
Cc1noc(C)c1S(=O)(=O)N(C)C[C@H]1OCCCC[C@H](C)Oc2ccc(NC(=O)Cc3ccccc3)cc2C(=O)N([C@@H](C)CO)C[C@@H]1C | -2 | -7 | 0.9
O=C1NCCOc2ccccc21 | 5 | 7 | 2.9
Cc1noc(C)c1S(=O)(=O)Nc1ccc2c(c1)C(=O)N([C@H](C)CO)C[C@@H](C)[C@@H](CN(C)S(=O)(=O)c1cn(C)cn1)OCCCC[C@@H](C)O2 | -2 | 3 | 0.5
C/C=C/c1ccccc1[C@H]1[C@@H](CO)N(C(=O)Nc2ccccc2F)[C@H]1C#N | -1 | -10 | -0.6
Cc1ccc(S(=O)(=O)Nc2ccc3c(c2)C(=O)N([C@@H](C)CO)C[C@H](C)[C@@H](CN(C)CC2CC2)OCCCC[C@H](C)O3)cc1 | 2 | 1 | 2.2
O=C(N[C@H]1C=C[C@@H](CC(=O)N2CCCCC2)O[C@@H]1CO)c1cccc(F)c1 | 2 | 1 | -2.4
C[C@@H]1CCCCO[C@H](CN(C)C(=O)Cc2ccccc2)[C@@H](C)CN([C@@H](C)CO)C(=O)c2cc(NC(=O)Cc3ccccc3)ccc2O1 | -4 | -12 | -0.4
C[C@@H]1CCCCO[C@H](CN(C)C(=O)Nc2ccc3c(c2)OCO3)[C@@H](C)CN([C@H](C)CO)C(=O)c2cc(NS(=O)(=O)c3ccc(F)cc3)ccc2O1 | 1&-1 | -10&-3 | 0.1&2.3
COCC#Cc1ccc2c(c1)O[C@@H](CN(C)Cc1ccc(F)cc1)[C@H](C)CN([C@@H](C)CO)S2(=O)=O | -12 | -39 | 13
C[C@@H]1CN([C@@H](C)CO)C(=O)c2cc(NS(=O)(=O)c3ccc(Cl)cc3)ccc2O[C@@H]1CN(C)CC1CCCCC1 | 2 | -8 | -0.5

Sorted by SMILES length (lowest first): ten of the compounds above.
SMILES | rRNA inh HTS | rRNA inh HTS OD600 | rRNA inh HTS RFP
O=C1NCCOc2ccccc21 | 5 | 7 | 2.9
Cc1ccc(-c2ccc(CN3C(C)C(=O)N(Cc4cn(Cc5ccco5)nn4)CCS3(=O)=O)cc2)cc1 (stereo unspecified) | -6 | -2 | 4.7
C[C@H]1CN([C@@H](C)CO)C(=O)c2cc(-c3ccc(F)cc3)cnc2O[C@H]1CN(C)C(=O)Cc1ccccc1 | -5 | 1 | -1.5
CO[C@H]1CN(C)C(=O)c2cc(NS(=O)(=O)c3ccccc3)ccc2OC[C@H](C)N(Cc2nccs2)C[C@@H]1C | 0 | -15 | 4.4
COc1ccc(NC(=O)Nc2ccc3c(c2)CC(=O)N([C@@H](C)CO)C[C@@H](C)[C@H](CN(C)CC2CC2)O3)cc1 | 1 | 2 | -0.1
C[C@@H]1CN([C@@H](C)CO)C(=O)c2cc(NS(=O)(=O)c3ccc(Cl)cc3)ccc2O[C@@H]1CN(C)CC1CCCCC1 | 2 | -8 | -0.5
Cc1ccc(S(=O)(=O)Nc2ccc3c(c2)C(=O)N([C@@H](C)CO)C[C@H](C)[C@@H](CN(C)CC2CC2)OCCCC[C@H](C)O3)cc1 | 2 | 1 | 2.2
C[C@@H]1CCCCO[C@H](CN(C)C(=O)Cc2ccccc2)[C@@H](C)CN([C@@H](C)CO)C(=O)c2cc(NC(=O)Cc3ccccc3)ccc2O1 | -4 | -12 | -0.4
Cc1noc(C)c1S(=O)(=O)N(C)C[C@H]1OCCCC[C@H](C)Oc2ccc(NC(=O)Cc3ccccc3)cc2C(=O)N([C@@H](C)CO)C[C@@H]1C | -2 | -7 | 0.9
C[C@@H]1CCCCO[C@H](CN(C)C(=O)Nc2ccc3c(c2)OCO3)[C@@H](C)CN([C@H](C)CO)C(=O)c2cc(NS(=O)(=O)c3ccc(F)cc3)ccc2O1 | 1&-1 | -10&-3 | 0.1&2.3

Following part.
SMILES | rRNA inh HTS | rRNA inh HTS OD600 | rRNA inh HTS RFP
COc1ccc(CN(C)C[C@H]2OCCCC[C@H](C)Oc3ccc(NS(=O)(=O)c4ccc(OC)cc4)cc3C(=O)N([C@@H](C)CO)C[C@H]2C)cc1 | 4 | -10 | -1.0
O=C(c1ccccc1F)N1C[C@H]2[C@@H](c3ccccc31)[C@@H](CO)N2C(=O)c1ccccc1 | 4 | 9 | -2.0
COCCCNC(=O)c1ccc(-c2c(C)noc2C)c2ccoc12 | 2 | 5 | 3.1
COc1ccc(S(=O)(=O)N(C)C[C@H]2OCCCC[C@@H](C)Oc3ccc(NS(=O)(=O)c4cccs4)cc3C(=O)N([C@H](C)CO)C[C@H]2C)cc1 | 0 | 0 | -0.5
O=C(O)C(=Cc1ccncc1)c1cccc2ccccc12 | -10 | -8 | 2.3
C[C@@H]1CCCCO[C@@H](CN(C)C(=O)CCCN(C)C)[C@H](C)CN([C@@H](C)CO)C(=O)c2cc(NS(=O)(=O)c3ccccc3)ccc2O1 | 4 | -1 | -2.5
C[C@@H]1CCCCO[C@@H](CN(C)Cc2ccccc2)[C@@H](C)CN([C@@H](C)CO)C(=O)c2cc(NS(=O)(=O)c3cccs3)ccc2O1 | 6 | -7 | 3.3
O=C(Cc1cccnc1)N[C@@H]1CC[C@@H](CCNS(=O)(=O)c2ccccc2Cl)O[C@H]1CO | -2 | 1 | 0.5
COc1ccc(S(=O)(=O)N(C)C[C@H]2OCCCC[C@H](C)Oc3ccc(NS(=O)(=O)c4cn(C)cn4)cc3C(=O)N([C@H](C)CO)C[C@H]2C)cc1 | -4 | 5 | -0.1
CO[C@@H]1CN(C)C(=O)c2cc(NS(=O)(=O)c3ccccc3)ccc2OC[C@@H](C)N(C(=O)NC(C)C)C[C@@H]1C | 2 | -6 | -2.6
COc1ccc2c3c(n(C)c2c1)[C@@H](CO)N(C(=O)c1cnccn1)CC31CCN(C(=O)c2cnccn2)CC1 | 4 | 10 | -4.3
CC1(C(=O)NCc2cccnc2)CCN1C(=O)Cc1cccs1 (stereo unspecified) | 8 | 16 | -1.2
CCN(CC)C(=O)C1=C(C)N(CCCOC)C(=O)C(CC(=O)NCc2cccs2)C1 (stereo unspecified) | 3 | 6 | -0.2
C[C@@H]1CN([C@@H](C)CO)C(=O)c2cccc(NS(=O)(=O)c3cccs3)c2O[C@@H]1CN(C)C | 5 | 6 | 0.4
CCc1nc2ccc(C(=O)NCc3ccc(OC)cc3)cn2c1N(CC)CCOC | 1 | 9 | 2.6
C[C@H]1CN([C@@H](C)CO)S(=O)(=O)c2ccc(C#CC(C)(C)O)cc2O[C@@H]1CN(C)Cc1ccncc1 | -7 | -1 | -3.5
Cc1cc(C(=O)Nc2cccc3c2O[C@H](CN(C)Cc2ccc(C(=O)O)cc2)[C@H](C)CN([C@H](C)CO)C3=O)n(C)n1 | 4 | 5 | -2.4
O=C(NC1Cc2ccccc2C1)[C@H]1N[C@H]2c3cccc(=O)n3C[C@H]2[C@@H]1CO | -1 | 4 | -0.2
COCC(=O)N(C)C[C@@H]1Oc2ncc(C#Cc3ccc(OC)cc3)cc2C(=O)N([C@@H](C)CO)C[C@H]1C | 1 | 8 | 0.8
N#C[C@@H]1[C@@H](c2ccc(-c3ccccc3F)cc2)[C@@H](CO)N1C(=O)Cc1ccccc1 | -2 | -45 | 5.1
CC(=O)N1[C@H](C(=O)NC2CCC2)[C@@H](CO)[C@@H]2Cn3c(ccc(-c4ccccc4)c3=O)[C@@H]21 | 5 | 7 | -2.4
COCC(=O)N1CCCCN2[C@@H](CO)[C@H](c3ccc(-c4ccc(OC)cc4)cc3)[C@@H]2C1 | 1 | 9 | -2.3
Cc1ccc(S(=O)(=O)N(C)C[C@H]2Oc3c(NS(C)(=O)=O)cccc3C(=O)N([C@H](C)CO)C[C@@H]2C)cc1 | -4 | -8 | 0.2
O=C1NCCOCc2cn(nn2)CC[C@@H]1Cc1ccccc1 | 4 | 7 | -0.1
C[C@@H]1CN([C@H](C)CO)C(=O)c2cc(NC(=O)Nc3ccc4c(c3)OCO4)ccc2O[C@@H](C)CCCCO[C@H]1CN(C)Cc1ccc(C(F)(F)F)cc1 | -5 | -6 | -5.4
COC(=O)[C@@H]1[C@@H](CO)[C@@H]2Cn3c(ccc(C4=CCCCC4)c3=O)[C@@H]2N1C(=O)C1CCCC1 | 0 | 4 | 0.2
N#C[C@@H]1[C@@H](c2ccc(C#CCC3CCCC3)cc2)[C@H](CO)N1C(=O)c1ccccn1 | 0 | -19 | 12
CCCN(C)C[C@H]1OCCCC[C@@H](C)Oc2ccc(NC(=O)C3CCCCC3)cc2C(=O)N([C@H](C)CO)C[C@@H]1C | 2 | 4 | -2.4
CN1CCN(c2ccc(CNC[C@H]3O[C@@H](n4cnc5c(=O)[nH]c(N)nc54)[C@H](O)[C@@H]3O)c(F)c2)CC1 | 1 | 15 | 13
COc1ccc(-c2ccc([C@@H]3[C@@H](CO)N4C(=O)CN(Cc5ccccc5)C[C@@H]34)cc2)cc1 | 0 | -3 | 0.7
COc1ccc(NC(=O)N(C)C[C@H]2OCCCC[C@H](C)Oc3ccc(NS(=O)(=O)c4cn(C)cn4)cc3C(=O)N([C@H](C)CO)C[C@@H]2C)cc1 | 5&2 | 12&1 | 2.2&-0.6
COc1ccc(NC(=O)Nc2ccc3c(c2)C(=O)N([C@H](C)CO)C[C@@H](C)[C@H](CN(C)C(=O)Nc2c(C)noc2C)OCCCC[C@@H](C)O3)cc1 | 3 | 0 | 1.0
C[C@@H]1CN([C@@H](C)CO)C(=O)c2cc(NS(=O)(=O)c3cn(C)cn3)ccc2O[C@H]1CN(C)S(C)(=O)=O | 4 | 15 | -0.6
C[C@@H]1CCCCO[C@@H](CN(C)Cc2ccncc2)[C@@H](C)CN([C@H](C)CO)C(=O)c2cc(NC(=O)Cc3ccccc3)ccc2O1 | 2 | 5 | 1.7
COCC#Cc1cnc2c(c1)C(=O)N([C@H](C)CO)C[C@@H](C)[C@@H](CN(C)Cc1ccccc1F)O2 | 4 | 10 | -0.9
Cc1ccc(S(=O)(=O)N2C[C@@H](O)COC[C@H]3O[C@@H](CC(=O)N[C@H]4CCN(Cc5ccccc5)C4)CC[C@@H]32)cc1 | 4 | 10 | -0.1
COc1ccc(NC(=O)N(C)C[C@H]2OCCCC[C@H](C)Oc3ccc(NC(=O)c4ccncc4)cc3C(=O)N([C@@H](C)CO)C[C@H]2C)cc1 | 0 | 2 | 2.7
C[C@@H]1CN([C@H](C)CO)C(=O)Cc2cc(NS(=O)(=O)c3ccccc3)ccc2O[C@H]1CN(C)Cc1ccc(Cl)c(Cl)c1 | 0 | 7 | 1.8
Cc1ccc(S(=O)(=O)N[C@H]2CC[C@H](CCn3cc(-c4cccnc4)nn3)O[C@@H]2CO)cc1 | 0 | 1 | -3.2
CCS(=O)(=O)NC[C@H]1[C@@H](c2ccccc2)[C@@H](CO)N1CC1CCCC1 | 4 | 0 | -0.6
CN(C)c1ccc(CC(=O)N2CCCCC2c2cc(C(=O)Nc3ccccc3Cl)no2)cc1 (stereo unspecified) | -7 | -33 | -2.8
COCC(=O)N(C)C[C@@H]1Oc2ncc(Br)cc2C(=O)N([C@@H](C)CO)C[C@H]1C | 6&4 | 10&9 | -0.3&-2.6
COc1ccc(NC(=O)N(C)C[C@H]2Oc3ccc(N(C)C)cc3C(=O)N([C@H](C)CO)C[C@H]2C)cc1 | 0 | -14 | 0.0
CCCc1nc2c3ccccc3ccn2c1Cc1ccc(C)cc1 | -33 | -70 | -2.6
N[C@@H]1CC[C@@H](CCn2cc(-c3ccccn3)nn2)O[C@H]1CO | 0 | 2 | 0.1
CCOC(=O)N1CCN(C(=O)C[C@@H]2C[C@@]3(C(=O)OC)CC(C)(C)CC=C3N(Cc3cccc4ccccc34)C2=O)CC1 | 7 | -1 | -1.3
C[C@H]1CN([C@@H](C)CO)C(=O)c2cccc(NS(=O)(=O)c3ccc(Cl)cc3)c2O[C@H]1CN(C)CC1CCCCC1 | 2 | -2 | 3.8
